# MARV entry inh: Marburg virus entry inhibition; Marburg virus pseudotype entry/binding inhibition, cell-based; control for the full effect not named in the record; many of its hits are not listed in these tables; Potency, µM (series often up to 49.2 µM), inactives show top-dose activity change, negative = inhibition, usual class: inhibitors; hit rate 6.5% among 18,000; AID 720532; active means well fitted inhibition curve with a large enough effect; inconclusive means small, poorly fitted or top-dose-only effect; inactive means no such curve, though single readings can be large or run the other way; tested in HEK293 cells; also: luciferase read-out
# Lassa entry: inhibitors of Lassa virus binding or entry into cells; Lassa virus pseudotyped entry inhibition, cell-based qHTS; control for the full effect not named in the record; many of its hits are not listed in these tables; AID 720533; Potency, µM (titrated, usually from 49.2 µM), for inactives: top-dose activity change, negative = inhibition, usual class: inhibitors; hit rate 4.1% among 18,000; active = well fitted inhibition curve with a large enough effect; inconclusive = small, poorly fitted or top-dose-only effect; inactive = no such curve, though single readings can be large or run the other way; tested in HEK293 cells; also: luciferase read-out
# * marks the source's active call; other numbers are inactive results; ? = inconclusive; . = no result given; & = joins results of further samples; [ ] = remark or other dose. % is scaled to controls: 0 for no effect and ±100 for the full control effect; potency is read from the fitted curve at half-maximal effect.
SMILES | MARV entry inh | Lassa entry
CC[C@H](C)[C@H](NC(=O)[C@H](Cc1ccccc1)NC(=O)[C@H](CCC(=O)O)NC(=O)[C@H](CCCCN)NC(=O)[C@H](C)NC(=O)[C@H](C)NC(=O)[C@H](CCC(N)=O)NC(=O)CNC(=O)[C@H](CCC(=O)O)NC(=O)[C@H](CC(C)C)NC(=O)[C@H](Cc1ccc(O)cc1)NC(=O)[C@H](CO)NC(=O)[C@H](CO)NC(=O)[C@@H](NC(=O)[C@H](CC(=O)O)NC(=O)[C@H](CO)NC(=O)[C@@H](NC(=O)[C@H](Cc1ccccc1)NC(=O)[C@@H](NC(=O)CNC(=O)[C@H](CCC(=O)O)NC(=O)[C@H](C)NC(=O)[C@@H](N)Cc1cnc[nH]1)[C@@H](C)O)[C@@H](C)O)C(C)C)C(=O)N[C@@H](C)C(=O)N[C@@H](Cc1c[nH]c2ccccc12)C(=O)N[C@@H](CC(C)C)C(=O)N[C@H](C(=O)N[C@@H](CCCCN)C(N)=O)C(C)C | 12% | -6%
O=C(O)c1cc(Oc2ccc(C(F)(F)F)cc2Cl)ccc1[N+](=O)[O-] | 8%&15% | -4%&-3%
CC1CN(CCC(=O)NCc2ccc3ncccc3c2)Cc2cc(Cl)ccc2O1 (stereo unspecified) | -12% | 7%
OCC(O)C(O)C(O)C(O)C(O)CO (stereo unspecified) | -10% | 1%
COc1ccc(CN2CCc3nnc(CNC(=O)c4cc(C)oc4C)n3CC2)c2ccccc12 | -11% | -7%
CCCCCCCC/C=C\CCCCCCCC(=O)OC[C@@H](O)[C@H]1OC[C@H](O)[C@H]1O | 3% | -8%
c1ccc(-c2csc(-c3nc4ccccc4[nH]3)n2)cc1 | 7% | ?
O=C(NN=C1C[C@@H](O)[C@H](O)[C@H]2[C@@H]3C(=O)N(C[C@@H]4CCCO4)C(=O)[C@@H]3CC[C@H]12)OCc1ccccc1 | 30%[activator][8.59 µM] | .
COc1ccc(CN2CCOc3ccc(CN4CCC(Oc5cccnc5)CC4)cc3C2)c(F)c1 | 11µM* | -8%
COC(=O)c1c(OCc2ccccn2)cc(=O)n2c1CCN(C(=O)c1n[nH]c3c1CCCC3)CC2 | -13% | 2%
C=CCOC(=O)C1(C(NC(=O)OC)c2ccccc2)C(=O)Cc2ccccc21 (stereo unspecified) | -8% | 0%
O=c1c2cc(O)c(O)cc2oc2cc(O)c(C3OC(CO)C(O)C(O)C3O)c(O)c12 (stereo unspecified) | ? | 24%
O=[n+]1ccn([O-])c2ccccc21 | 9% | -9%
CC1(C)CC[C@]2(C)CC[C@@]3(C)C(=CCC4[C@@]5(C)CCC(O)C(C)(C)C5CC[C@@]43C)C2C1 (stereo partly specified) | 5% | 4%
Cc1cc(C)c(S(=O)(=O)Nc2cccc(C(F)(F)F)c2)c(C)c1 | ? | 0%
C=C(C#Cc1ccc(OC)cc1)CCN1C=C(C(=O)OCC)C(c2ccccc2)NC1=O (stereo unspecified) | 6%[8.59 µM] | 32%[activator][8.59 µM]
OC[C@@H]1[C@@H](c2ccccc2)C(c2ccccc2)=NN1c1ccccc1 | -18% | -20%
COc1ccc2c(c1)OC1(O)COc3cc(OC)c(OC)cc3C1=C2 (stereo unspecified) | -3% | -13%
O=c1c(O)c(-c2ccccc2)oc2ccccc12 | -2% | -9%
CC(=O)c1ccc(C(=O)NCc2nc(-c3ccccc3NC(=O)c3cc(C)oc3C)oc2C)cc1 | 1% | 30%
NCc1ccc(S(N)(=O)=O)cc1 | 23% | -5%
CC(=O)NCCNC(=O)c1cnn(-c2nccc(-c3cc(C)sc3C)n2)c1C | -4% | -4%
O=C(OCc1cn([C@H]2CN(CC3CCCCC3)[C@@H](c3ccc(Cl)cc3)C[C@H]2O)nn1)c1ccccc1 | ? | -35%
COc1c2occc2c(OC)c2c(=O)cc(C)oc12 | 3%[17.8 µM] | -3%[17.8 µM]
COc1ccc(CC2c3cc(OC)c(OC)cc3CC[N+]2(C)CCC(=O)OCCCCCOC(=O)CC[N+]2(C)CCc3cc(OC)c(OC)cc3C2Cc2ccc(OC)c(OC)c2)cc1OC (stereo unspecified) | 4%[17.8 µM] | -7%[17.8 µM]
O=C1[C@@H]2[C@H]3[C@H](O)[C@H](O)CC(=NOC[C@@H](O)COCc4ccco4)[C@@H]3CC[C@H]2C(=O)N1C[C@@H]1CCCO1 | ? | 7%[8.59 µM]
COc1cc(CN2CCOc3ccc(CN4CCC(Oc5cccnc5)CC4)cc3C2)ccc1F | ? | -10%
O=C(O)c1ccccc1OP(=O)(O)O | 16% | -2%
Cc1ccccc1C(=O)NC(C)c1nnc2n1CCN(Cc1ccccc1F)CC2 (stereo unspecified) | ? | -8%
CCCCC(CC)COC(=O)c1ccccc1C(=O)O (stereo unspecified) | 10%[107 µM] | 16%[107 µM]
Clc1ccc(C(Cn2ccnc2)OCc2c(Cl)cccc2Cl)c(Cl)c1 (stereo unspecified) | 6%[17.8 µM] | -15%[17.8 µM]
Cc1cc2oc(=O)cc(CN3CCOCC3)c2cc1C | 19% | -5%
Cn1cc(C2=C(c3cn(CCCSC(=N)N)c4ccccc34)C(=O)NC2=O)c2ccccc21 | 16µM* | 18µM*
CCCCCCOC(=O)C1(O)CC2OC1(C)n1c3ccccc3c3c4c(c5c6ccccc6n2c5c31)C(=O)NC4 (stereo unspecified) | 9% | -10%
CC[C@@H](c1ccccc1)n1c(=O)n2n(c1=O)[C@H]1[C@H](O)[C@@H]3O[C@H]3C(=NOCc3ccccc3)[C@H]1CC2 | ? | 6%[8.59 µM]
CC(C)[C@@H](C)/C=C/[C@@H](C)[C@H]1CC[C@H]2/C(=C/C=C3\C[C@@H](O)CC[C@@H]3C)CCC[C@]12C | 13% | 22µM*
Cc1cc(C)nc(-c2cccc3c2OC(CNC(=O)C2CCOC2)C3)n1 (stereo unspecified) | 7% | -9%
Cc1cc(C)c(NC(=O)CN(CC(=O)O)CC(=O)O)c(C)c1Br | -5% | -20%
O=C(Cc1cscn1)N1CCOc2ccc(CN3CCN(c4ccccn4)CC3)cc2C1 | ? | -15%
CC(C(=O)O)c1cccc(Oc2ccccc2)c1 (stereo unspecified) | -8% | 18%
Cc1c(C(=O)N2CCCC(c3ccccc3)C2)sc2ncnc(NCCc3ccccn3)c12 (stereo unspecified) | -32% | -16%
O=C(NCCc1ccccc1)c1cccc(NC(=O)C2CCCC2)c1 | 117%[activator] | 14%
O=C(NC1CCCC1)c1cn(C2CCN(Cc3cccc4cccnc34)CC2)nn1 | 6% | 0%
O=C(OC1CNC(C#Cc2cc3ncnc(Nc4ccc5c(ccn5Cc5cc(F)ccc5F)c4)c3s2)C1)N1CCOCC1 (stereo unspecified) | ? | ?
CCn1c(=O)[nH]c2ccccc21 | 8% | -2%
CC(C)CON=C1C[C@@H](O)[C@@H](O)[C@@H]2[C@H]3C(=O)N(C4CCCCC4)C(=O)[C@@H]3CC[C@H]12 | ? | 31%[activator][8.59 µM]
CN(Cc1cccc2ncccc12)C(=O)c1cnn(-c2nccc(-c3ccccc3F)n2)c1C1CC1 | ? | 13µM*
CCCCSP(=O)(SCCCC)SCCCC | -10% | 4%
COCc1ccc(CN2CCOc3c(cc(-c4ccc(SC)cc4)cc3OC)C2)o1 | -6% | ?
O=C(CCCN1CCN(c2ccccn2)CC1)c1ccc(F)cc1 | 9%&-30% | 16%[17.8 µM]
c1ccc(CNc2ncnc3nc[nH]c23)cc1 | 14%[17.8 µM] | 1%[17.8 µM]
CCc1oc2ccccc2c1C(=O)c1cc(I)c(O)c(I)c1 | -11% | ?
CC(=O)O[C@H]1C(=O)[C@@]2(C)[C@H]([C@H](OC(=O)c3ccccc3)[C@]3(O)C[C@H](OC(=O)[C@H](O)[C@@H](NC(=O)c4ccccc4)c4ccccc4)C(C)=C1C3(C)C)[C@]1(OC(C)=O)CO[C@@H]1C[C@@H]2O | ? | -28%&-33%
CC(=O)CC(c1ccccc1)c1c(O)c2cccc(O)c2oc1=O (stereo unspecified) | 0% | -7%
Cc1ccc2c(c1)CN(C(=O)CC(c1ccccc1)c1ccco1)CC(C)O2 (stereo unspecified) | -16% | -18%
CC(=O)OC1C=C[C@@H](OC(C)=O)C1 (stereo partly specified) | 3% | -3%
COC(=O)C1=C[C@H]([C@@H](C)[C@H](OC)c2ccccc2Br)[C@H]2c3ccccc3O[C@@H]12 | ? | 1.7µM*
N#C/C(=C1/SC[C@@H](c2ccc(Cl)cc2Cl)S1)n1ccnc1 | 0%&7%&6% | -22%&-18%&-16%
O=C(c1cccnc1)C1CCCN(Cc2ccc3c(c2)CN(C(=O)c2cnccn2)CCO3)C1 (stereo unspecified) | -16% | 5%
O=C1c2ccccc2S(=O)(=O)N1CCCCN1CCN(c2ncccn2)CC1 | -16% | -11%

# Entries listed so far that contain an aryl methoxy group:
SMILES | MARV entry inh | Lassa entry
COc1ccc(CN2CCc3nnc(CNC(=O)c4cc(C)oc4C)n3CC2)c2ccccc12 | -11% | -7%
COc1ccc(CN2CCOc3ccc(CN4CCC(Oc5cccnc5)CC4)cc3C2)c(F)c1 | 11µM* | -8%
C=C(C#Cc1ccc(OC)cc1)CCN1C=C(C(=O)OCC)C(c2ccccc2)NC1=O (stereo unspecified) | 6%[8.59 µM] | 32%[activator][8.59 µM]
COc1ccc2c(c1)OC1(O)COc3cc(OC)c(OC)cc3C1=C2 (stereo unspecified) | -3% | -13%
COc1c2occc2c(OC)c2c(=O)cc(C)oc12 | 3%[17.8 µM] | -3%[17.8 µM]
COc1ccc(CC2c3cc(OC)c(OC)cc3CC[N+]2(C)CCC(=O)OCCCCCOC(=O)CC[N+]2(C)CCc3cc(OC)c(OC)cc3C2Cc2ccc(OC)c(OC)c2)cc1OC (stereo unspecified) | 4%[17.8 µM] | -7%[17.8 µM]
COc1cc(CN2CCOc3ccc(CN4CCC(Oc5cccnc5)CC4)cc3C2)ccc1F | ? | -10%
COCc1ccc(CN2CCOc3c(cc(-c4ccc(SC)cc4)cc3OC)C2)o1 | -6% | ?

# Carrying on:
SMILES | MARV entry inh | Lassa entry
CC(=O)NC1CCSC1=O (stereo unspecified) | 8%[17.8 µM] | -10%[17.8 µM]
O=C(Nc1cccc(C(=O)N2CCCCC2)c1)C1CCCC1 | 23% | 13%
Nc1ncnc2c1ncn2[C@@H]1O[C@H](C(=O)NC2CC2)[C@@H](O)[C@H]1O | 5% | 1%
C[C@]12C=CC(=O)C=C1CCC1C2C(=O)C[C@]2(C)C1CC[C@]2(O)C(=O)CO (stereo partly specified) | 7% | -11%
O=C(CN1CCCCC1c1cccnc1)c1ccccc1 (stereo unspecified) | 27% | -4%
C=CCN1c2ccccc2[C@]23CCC(=O)N(CCc4ccccn4)C2=NC(C(=O)OC)=C(C(=O)OC)[C@H]13 | 4%[8.59 µM] | 14%[8.59 µM]
COC(=O)COc1ccc(C[C@@H](C)NC[C@H](O)c2cccc(Cl)c2)cc1 | -17% | 2%
CC(C)=C[C@@H]1[C@@H](C(=O)OCc2coc(Cc3ccccc3)c2)C1(C)C | -3% | -30%
Cc1cc(C)cc(-c2cc3c(c(-c4c(O)c(-c5cc(C)cc(C)c5)cc5c4CCCC5)c2O)CCCC3)c1 | -20% | -2%
CC1CC[C@]2(CO)CC[C@]3(C)C(=CCC4[C@@]5(C)CCC(O)C(C)(C)C5CC[C@@]43C)C2C1C (stereo partly specified) | 20% | 21%
COc1ccc2ccccc2c1CN1CCc2nnc(C(NS(C)(=O)=O)C(C)C)n2CC1 (stereo unspecified) | -7% | 5%
Cc1cccc(O)c1 | 3%&7% | -2%&4%
CC1(C)CC(n2cnc(-c3ccc(F)cc3)c2-c2ccnc(N)n2)CC(C)(C)N1 | ? | 27%
COc1ccc(O[C@H]2C=C[C@@H](c3ccccc3)O[C@H]2CON=C2[C@H]3CCn4c(=O)n(-c5ccccc5)c(=O)n4[C@@H]3[C@H](O)[C@@H]3O[C@H]23)cc1 | 5%[8.59 µM] | 6%[8.59 µM]
COc1ccc(-c2cc3c(c4c2ccn4C)C2CCC3C2)cc1 (stereo unspecified) | ? | .
COCc1c(C(=O)N2CCN(C)CC2)cnn1-c1ncc2c(n1)-c1ccccc1CCC2 | -6% | -12%
CCC(C)C1NC(=O)C(Cc2ccc(O)cc2)NC(=O)C(N)CSSCC(C(=O)N2CCCC2C(=O)NC(CC(C)C)C(=O)NCC(N)=O)NC(=O)C(CC(N)=O)NC(=O)C(CCC(N)=O)NC1=O (stereo unspecified) | 6% | -2%
CCCCC1=CC2=CC(=O)C(C)(OC(=O)CCc3ccccc3)C(=O)C2=CO1 (stereo unspecified) | 26% | 1%
COC(=O)N[C@@H](c1ccco1)[C@]1(C(=O)OC)CCCC1=O | ? | -2%[8.59 µM]
CC(C)(C)c1ccc(N2C[C@@H](COc3ccc(C(=O)O)cc3)CC2=O)cc1 | 4% | -3%
CC1(C)C(OC(=O)CCC(=O)O)CC[C@]2(C)C1CC[C@@]1(C)C2C(=O)C=C2[C@@H]3C[C@@](C)(C(=O)O)CC[C@]3(C)CCC21C (stereo partly specified) | 7% | -21%
O=C(c1ccccc1)C1O[C@H]1c1ccccc1 (stereo partly specified) | -9% | 3%
CC[C@H](C)[C@H](N)C(=O)N[C@@H](CC(N)=O)C(=O)N1CCC[C@H]1C(=O)N[C@H](C(=O)N[C@@H](Cc1ccc(O)cc1)C(=O)N[C@@H](CCCN=C(N)N)C(=O)N[C@@H](CC(C)C)C(=O)N[C@@H](CCCN=C(N)N)C(=O)N[C@@H](Cc1ccc(O)cc1)C(N)=O)[C@@H](C)CC | 3% | 5%
O=Cc1c2[nH]c3ccccc3c2cc2[nH]c3ccccc3c12 | 6%&-9%&12%&26% | 22%&7%&0%&-1%

# Screening results (PubChem)

# An excerpt; count on the stated rates, not on these rows.
